High-throughput results as filed in PubChem.
TR SRC2 fluor cs – Texas Red fluorescence interference in TRb-SRC2 counter-screen; TRb/SRC2 Texas Red total fluorescence interference; Potency, µM (titrated, usually from 106 µM), inactives show at the highest dose fluorescence change, negative = quenching; 280,000 tested, 0.29% active; AID 1479; active = well fitted curve in either direction with a large enough effect
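Human TRb ligand-binding domain at 0.6 uM with 20 nM Texas Red SRC2 peptide in Tris buffer containing 1 uM T3 and 5% DMSO, incubated with compound 5 h at ambient temperature. Total fluorescence (555/632 nm) calculated as parallel + 2 × perpendicular.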
Tau fibril FP – tau fibrillization inhibition (FP) | P10636 | K18 P301L tau heparin fibrillization, Alexa594 FP, 6 h | Potency, µM (top dose mostly 57.7 µM), without a hit: at the top dose activity, negative = inhibition, most hits filed as inhibitors | 280,000 tested, 0.39% active; also: nearly all actives have a fitted effect of over 55% in size
Target sequence (P10636 561-689 P618L limits assumed): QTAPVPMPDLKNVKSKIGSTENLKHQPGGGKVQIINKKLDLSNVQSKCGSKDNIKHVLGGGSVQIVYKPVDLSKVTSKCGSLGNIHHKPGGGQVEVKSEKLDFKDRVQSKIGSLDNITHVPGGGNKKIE
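Recombinant K18 P301L […], labeled with Alexa 594 at 0.24 uM over 15 uM unlabeled; heparin inducer 20 uM final; 37 C, 6 hr; FP endpoint.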
TRb SRC2 PPI – inhibitors of human thyroid hormone receptor beta-SRC2 interaction | P10828 | TRbeta-SRC2 peptide binding, fluorescence polarization; receptor liganded with 1 µM T3 | 280,000 tested, 0.065% active | Potency, µM (doses to about 106 µM), inactives show at the highest dose activity change, negative = inhibition, hits mostly inhibitors;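 also: plate controls were bound peptide for no effect and peptide without receptor for full effect; nearly all actives have a fitted effect of over 50% in size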
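Compounds were added to 0.6 uM TRb ligand-binding domain and 20 nM Texas Red-labeled SRC2 peptide in Tris buffer containing 1 uM T3, incubated 5 hr at ambient temperature, then read by fluorescence polarization.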
Tau fluor counter – counter-screen for tau fibril formation inhibitors | tau K18 P301L Alexa594 fluorescence, heparin fibrillization | Potency, µM (titrated, usually from 57.7 µM), for the others: at the top dose activity change, negative = decrease | 280,000 tested, 0.93% active | AID 1463; also: nearly all actives have a fitted effect of over 55% in size
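Human tau K18 P301L (15 uM unlabeled, 0.24 uM Alexa 594-labeled) in 100 mM sodium acetate pH 7 with 20 uM heparin, 6 hr at 37 C. ThT 30 uM added, 1 hr ambient; Alexa 594 FP and total fluorescence read at 555/632 nm.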
* hit, by the source's call; & = joins results of further samples. Unless noted, calls follow the shape of the dose curve; as a rule, active = well fitted curve in the direction sought with a large enough effect; inconclusive = small, poorly fitted or top-dose-only effect, or another doubt; inactive = no such curve, though single readings can be large; an effect the other way counts as inactive or inconclusive. Unless noted, % is scaled to controls: 0 for no effect and ±100 for the full control effect; potency is read from the fitted curve at half-maximal effect. Some of the compounds tested, so the mix of outcomes need not match the whole.

Sample of the layout:
no.	SMILES	TR SRC2 fluor cs	Tau fibril FP
1	CCOC(=O)N1CCC(=C2c3ccc(Cl)cc3CCc3cccnc32)CC1	0.9%&-2.5%&-2.8%&1.4%&1.0%&0.0%	4.5%&8.9%&-0.5%&7.5%&5.6%&-9.9%
2	CC1=NC(C)(C)Cc2ccccc21	-0.1%	-0.6%
3	CC1CC[C@@]2(C(=O)O)CC[C@]3(C)C(=CCC4[C@@]5(C)CCC(O)C(C)(C)C5CC[C@@]43C)C2C1C (stereo partly specified)	-4.4%	-12.5%

no.	TRb SRC2 PPI	Tau fluor counter
1	5.8%&2.0%&4.7%&-3.8%&-5.5%&2.3%	-6.5%&-9.3%&-8.0%&-0.7%&-4.4%&-10.5%
2	6.4%	0.7%
3	-3.2%	-5.7%

Results, repeating the preview:
no.	SMILES	TR SRC2 fluor cs	Tau fibril FP
1	CCOC(=O)N1CCC(=C2c3ccc(Cl)cc3CCc3cccnc32)CC1	0.9%&-2.5%&-2.8%&1.4%&1.0%&0.0%	4.5%&8.9%&-0.5%&7.5%&5.6%&-9.9%
2	CC1=NC(C)(C)Cc2ccccc21	-0.1%	-0.6%
3	CC1CC[C@@]2(C(=O)O)CC[C@]3(C)C(=CCC4[C@@]5(C)CCC(O)C(C)(C)C5CC[C@@]43C)C2C1C (stereo partly specified)	-4.4%	-12.5%
4	CCCCN1C[C@H](O)[C@@H](O)[C@H](O)[C@H]1CO	-6.2%	-13.5%
5	O=C(O)C1CCN(S(=O)(=O)/C=C/c2ccccc2)CC1	-3.4%	14.1%
6	Cc1cc(C)cc(C(=O)NCC(=O)OCC(=O)NCc2ccco2)c1	0.4%	-14.6%

no.	TRb SRC2 PPI	Tau fluor counter
1	5.8%&2.0%&4.7%&-3.8%&-5.5%&2.3%	-6.5%&-9.3%&-8.0%&-0.7%&-4.4%&-10.5%
2	6.4%	0.7%
3	-3.2%	-5.7%
4	-1.4%	-4.7%
5	-5.1%	2.0%
6	3.3%	-5.5%
